H5N1 CPE – MDCK cell protection from H5N1 avian flu; cytopathic effect, luminescence, 72 h; active compounds read high; no value below 0 was filed and about half of the inactive calls have no number; reference of the scale not given here; inhibition, % at 50 µM; hit rate 0.07% among 96,000; AID 740, 2007; in the data active = inhibition above about 25%
Active calls of the source: *; i = inactive. This is a subset; count on the stated rates, not on these rows.

SMILES	H5N1 CPE
O=C(N/N=C/c1ccc(Sc2nc3ccccc3s2)c([N+](=O)[O-])c1)c1ccccn1	0.1
CCCCCNCc1ccc(Br)cc1	i
COc1ccc(CCC(=O)Nc2ccc(-c3noc(-c4ccc(OC)c(OC)c4)n3)cc2)cc1	1.0
C[C@H](N)c1nnc(SCC(=O)c2ccc(Cl)cc2)o1	0.2
O=C(Cn1nnc(-c2cccc(C(F)(F)F)c2)n1)N1CCCCCC1	i
Cc1nn(Cc2ccccc2)c(C)c1NC(=O)c1cc2nc(-c3ccco3)cc(C(F)(F)F)n2n1	2.8
CC(C)NC(=O)CSc1nnc(C2CC2)n1-c1ccccc1	i
Cc1cc(C(=O)COC(=O)c2csc3c2CCCC3)c(C)n1C	i
Cc1ccc2c(n1)CC(C)(C)CC2=O	0.8
N#Cc1cccc(C(c2nnnn2CCc2ccccc2)N2CCN(C3CCCCC3)CC2)c1 (stereo not drawn)	0.8
COc1ccccc1C1(O)CC2CCC(C1)N2S(=O)(=O)c1ccc(C(C)=O)cc1 (stereo not drawn)	0.7
CCOc1ccccc1CN1CCN(S(=O)(=O)CC)CC1	i
CCOc1cc(/C=C2/C(=O)N(c3ccccc3)N=C2C)ccc1OC(=O)c1cccs1	i
CCC(c1nnnn1C1CCCC1)N(Cc1cccs1)Cc1cc2cccc(C)c2[nH]c1=O (stereo not drawn)	i
COc1ccc(/C=N/n2c(SC)nnc2-c2ccccc2)c(OC)c1OC	3.1
CCCCCCSc1nc(O)c(C2OC(=O)c3c2ccc(OC)c3OC)c(=O)n1CC (stereo not drawn)	0.1
CCOC(=O)c1cncc(NC(=O)c2ccccc2)c1	1.1
O=C(CCCn1c(SCC(=O)c2ccc(Cl)cc2)nc2ccccc2c1=O)NCc1ccco1	i
CC1CCN(S(=O)(=O)c2ccc(-c3nnc(SCc4cccnc4)o3)cc2)CC1	1.5
CCOc1ccc2nc(NC(=O)CSc3nc4c(c(=O)n(C)c(=O)n4C)n3C(C)C)sc2c1	1.4
Clc1cccc(Cl)c1COc1ccncc1	i
Cc1cccc(Nc2nnc(-c3ccc(C(=O)N4C[C@H]5C[C@H](C4)c4cccc(=O)n4C5)cc3)c3ccccc23)c1	1.1
COc1ccc(CNC(=O)c2ccc(S(=O)(=O)N3CCCC3)cc2)cc1OC	1.1
CC1CCN(c2oc(Cc3cccc4ccccc34)nc2C#N)CC1	4.7
COc1ccccc1Cn1nnc2c(=O)[nH]c(C3CCN(C(=O)c4ccc(F)cc4)CC3)nc21	1.6

Remaining list, next part.
SMILES	H5N1 CPE
CCn1c(=N)c(S(=O)(=O)c2ccc(F)cc2)cc2c(=O)n3ccccc3nc21	0.1
Cc1ccc(C(C)C)cc1C(=O)CC1(O)C(=O)N(C)c2ccccc21 (stereo not drawn)	i
COc1ccc(N(CN2C(=O)C3CC=CCC3C2=O)C(=O)c2ccco2)cc1 (stereo not drawn)	i
O=C(CN1CCN(Cc2ccccc2)C1=O)NCCCN1CCOCC1	0.9
CCc1ccc(C(=O)COC(=O)CNC(=O)c2ccc(N3C(=O)c4ccccc4C3=O)cc2)cc1	i
Cc1cccc(N(CC(=O)NCc2ccc3c(c2)OCO3)C(=O)CCC(=O)Nc2ccccn2)c1	2.3
COc1ccc(C2NC(=O)NC(C)=C2C(=O)Nc2cccc(C)c2C)cc1 (stereo not drawn)	0.5
Clc1ccc2nc(CSc3nnc4ccccn34)cn2c1	1.4
O=[N+]([O-])c1cc(C(F)(F)F)ccc1NCCc1c[nH]c2ccc(O)cc12	3.5
COc1ccc(CN2CCN(S(=O)(=O)c3ccccc3)CC2)cc1Br	i
Cc1nn(CC#N)c(=O)n1-c1ccc(F)cc1	i
Cc1nc2ncnn2c(C)c1CCC(=O)N1CCN(c2ccccn2)CC1	1.3
OC(CNCc1ccco1)Cn1c2ccc(Br)cc2c2cc(Br)ccc21 (stereo not drawn)	i
Cc1cccc(-n2c(C)n[nH]c2=S)c1	0.5
O=C(CSc1ncn[nH]1)NCCCc1ccccc1	1.4
COc1cc2c(C(=O)NC3CCCCCC3)cn(C)c(=O)c2cc1OC	0.5
CC1Cc2ccccc2N1Cc1nc2scc(-c3cccs3)c2c(=O)[nH]1 (stereo not drawn)	2.2
COc1ccc(CNC(=O)C2CCN(S(=O)(=O)c3ccc(-c4nn[nH]n4)cc3)CC2)cc1	1.7
CC(=O)Nc1ccc(S(=O)(=O)NCc2cn3c(C)csc3n2)cc1	0.3
c1ccc(-c2nnc(SCc3nnc(-c4cccs4)o3)o2)cc1	1.0
COc1ccc(NS(=O)(=O)c2ccc(SC)cc2)c(OC)c1	1.0
S=C(NCCc1ccccc1)Nc1ccc(Cl)cc1Cl	0.6
O=C(NCc1ccccc1F)C1CCN(C(=O)NCc2ccccc2)CC1	0.4
CCOC(=O)N1CCN(C(=O)CSc2nnc(Cc3cccn3C)n2CCc2ccccc2)CC1	0.7
COc1cc(OC)c(NC(=O)c2ccoc2C)cc1Cl	1.2

Next records follow.
SMILES	H5N1 CPE
CCC(C)(C)n1nnnc1C(c1cc2cc(C)ccc2[nH]c1=O)N1CCCc2ccccc21 (stereo not drawn)	i
N#Cc1nc(-c2ccccc2F)oc1NCCc1ccccc1	i
CC1(C)Nc2ccccc2N(CC(=O)N2CCCCC2)C1=O	0.1
Cc1ccc(NC(=O)/C(C#N)=C/c2cccs2)c(C)c1	i
COC(=O)C1Cc2c([nH]c3ccccc23)CN1 (stereo not drawn)	0.5
COc1ccc2c(c1)C(C1=C(O)CC(C)(C)CC1=O)C1=C(CC(C)(C)CC1=O)O2 (stereo not drawn)	i
CC1(C)C2CCC1(C)C(OC(=O)CC(=O)O)C2 (stereo not drawn)	0.1
COc1cccc(Cn2nnc(C(=O)Nc3ccc(C)cc3)c2N)c1	i
COC(=O)c1oc2ccc(Br)cc2c1NC(=O)CCCN1C(=O)c2ccccc2C1=O	3.0
CON/C=C(\C=Nc1ccc(C(F)(F)F)cc1)c1ncc(C(F)(F)F)cc1Cl	1.0
c1ccc(COc2nsnc2N2CCOCC2)cc1	i
COc1cc(C2=NOC(C(=O)N3CCCCCC3)C2)cc(OC)c1OC (stereo not drawn)	i
O=C(NCCN1CCN(C(=O)c2cccs2)CC1)c1cccs1	i
CCC(C)Oc1nc(C)cc(C)c1S(=O)(=O)c1ccccc1C (stereo not drawn)	2.9
COc1ccccc1-n1cnc2cc(NCc3ccco3)ccc21	0.9
COc1ccc(S(=O)(=O)NN=C2CCCC2)cc1	0.2
COc1ccc(N2C(=O)CC(N3CCC(C(N)=O)CC3)C2=O)cc1 (stereo not drawn)	i
CCn1c(COc2ccc(Cl)cc2)nnc1SCc1nc2ccccc2[nH]1	i
O=c1c2cc3c(cc2[nH]c(=S)n1Cc1ccco1)OCO3	0.9
Cc1nc2sc(C)c(C)c2c(=O)[nH]1	1.9
CCCCn1c(O)c(C=NCCN2CCCCC2)c(=O)[nH]c1=O	0.3
O=C(CSc1c[nH]c2ccccc12)NCc1ccc2c(c1)OCO2	0.1
CCOC(=O)c1ccc(NC(=O)CN2CCN(CCN=CC3=C(O)CC(C)(C)CC3=O)CC2)cc1	i
CCCS(=O)(=O)c1c(S(=O)(=O)CCC)c2cnccn2c1C(=O)c1ccc(F)cc1	0.3
CNC(=S)NNC(=O)Cc1ccccc1	0.3

(further entries)
SMILES	H5N1 CPE
Cc1nc(N)nc(OCC(F)(F)C(F)F)c1Br	i
Cc1cc(N)n2ncc(-c3ccc(Cl)cc3)c2n1	i
O=C(NCC1CCCO1)C1CCC(CNS(=O)(=O)c2ccccc2)CC1 (stereo not drawn)	3.7
CCC1=Nc2ccccc2NC2=C1C(=O)CCC2	0.2
COc1ccc(-c2nc(=S)c3c(n2CCN2CCOCC2)CC(C)(C)OC3)cc1	0.4
COc1ccc2c(c1)C(NC(=O)C(F)(F)F)CC2=O (stereo not drawn)	1.0
O=c1cc(-c2ccccc2)[nH]c2ccccc12	i
CCSc1ccccc1C(=O)N1CCN(Cc2ccc3c(c2)OCO3)CC1	1.2
O=C1/C(=C/Nc2ccc3c(c2)OCO3)CCc2ccccc21	i
COc1cc2c(C(=O)NCCCN3CCN(c4cccc(Cl)c4)CC3)cn(C)c(=O)c2cc1OC	i
COC(=O)Oc1ccc(/C=N/NC(=O)CSCc2ccccc2Br)cc1OC	i
CCOC(=O)N1CCN(c2cc(C)c(C(C)=O)cc2F)CC1	1.5
Cc1ccc(-n2cccc2C(=S)N=P(N(C)C)(N(C)C)N(C)C)cc1	i
CC(C)(C)Sc1ccc(N)nc1	0.2
COCCn1c(C)cc(C(=O)CSc2ncn[nH]2)c1C	0.8
COc1cccc(NC(=O)CSc2nnc(CNC(=O)c3ccccc3)n2C)c1	i
CCOc1cc(C(=O)CSc2nnc(CNc3ccc(Cl)cc3)o2)ccc1NC(=O)CC	i
Cc1ccc(C(C(=O)NC2CCCCC2)N(CC2CCCO2)C(=O)CNC(=O)c2cccs2)cc1 (stereo not drawn)	i
COCCN(C(=O)C1CC1)c1nnc(-c2ccc(C)cc2)s1	1.4
O=C(CCCc1ccccc1)Nc1cccnc1	i
CCOc1ccc2nc(N3CCC(C(=O)Nc4nnc(CC)s4)CC3)sc2c1	i
O=C1c2ccccc2-c2onc3ccc(NCCCn4ccnc4)c1c23	i
COC(=O)c1cccc(NC(=O)CCCOc2ccccc2)c1	i
COCCNC(=O)CS(=O)(=O)Cc1nc(-c2ccc(C)cc2)oc1C	0.1
CSC1=NCCN1C(=O)COc1ccc2ccccc2c1	0.2

Rewritten as comma-separated lines: part of the list above
SMILES,H5N1 CPE
Cc1ccc(C(C(=O)NC2CCCCC2)N(CC2CCCO2)C(=O)CNC(=O)c2cccs2)cc1 (stereo not drawn),i
COCCN(C(=O)C1CC1)c1nnc(-c2ccc(C)cc2)s1,1.4

Next part:
SMILES	H5N1 CPE
O=C1Nc2ccc(S(=O)(=O)N3CCCC3)c3ccc(S(=O)(=O)N4CCCC4)c1c23	0.4
COc1ccccc1C/C(N)=N/OC(=O)COc1ccc2ccccc2c1	0.4
Cc1ccc2cc(C)c3nnc(SCC(=O)NCc4ccco4)n3c2c1	7.1
COc1ccc(C)cc1NC(=S)NNC(=O)c1ccccc1Cl	i
Cc1c(Cl)cccc1Nc1nc(N)nc(CN2CCc3ccccc3C2)n1	i
COc1ccc(C(=O)Nc2c(F)c(F)c(F)c(F)c2F)c(OC)c1	i
CC1=NC(=O)C(N=Nc2cccc(O)c2)N1c1ccccc1 (stereo not drawn)	i
O=C(CS(=O)(=O)c1c[nH]c2ccccc12)NC1CCCCC1	i
Cc1nnc(NC(=O)CSc2cn(CCNC(=O)c3ccccc3)c3ccccc23)s1	0.4
CCc1ccc(N=CC23c4ccccc4C(c4ccccc42)C2C(=O)N(c4ccc(OC)cc4)C(=O)C23)cc1 (stereo not drawn)	i
Cc1nnc(SCC(=O)N(C(C)C)C(C)C)nc1C	i
CCCn1nnnc1SCC(=O)NCc1ccc2c(c1)OCO2	i
COc1ccc(OC)c(S(=O)(=O)Nc2ccccc2C(=O)O)c1	i
CCCCN(CC)C(=O)c1cccc(Cl)c1	0.9
O=C(NC(NNc1ccc([N+](=O)[O-])cc1)(C(F)(F)F)C(F)(F)F)c1ccccc1Cl	i
c1ccc(NC2=Nc3ccccc3CS2)cc1	0.1
CCc1ccc(NC(=O)CCNS(=O)(=O)c2cccc3nonc23)cc1	0.5
C/C(=N\NC(=O)c1ccccc1C)c1cccc([N+](=O)[O-])c1	i
Cc1ccc2nc(NC(=O)CSc3nc4c(c(=O)n3C)SC(C)C4)sc2c1 (stereo not drawn)	0.9
CCOC(=O)c1cc2c(ccn2C)n1CC(=O)N1CCCC(C)C1 (stereo not drawn)	1.1
O=C1Nc2ccccc2OC1CC(=O)N1CCOCC1 (stereo not drawn)	0.6
CCn1c(NCc2cccs2)nc2ccccc21	i
Cc1ccc(-c2c(C(=O)N3CCOCC3)oc(=O)c3ccccc23)cc1	1.9
COCCNS(=O)(=O)c1ccc(SC)cc1	0.3
CC1(C)Cc2c(sc3[nH]c(=S)n(Cc4ccccc4)c(=O)c23)CO1	0.2

14 structures from above, ordered by count of non-hydrogen atoms, rising.
SMILES	H5N1 CPE
COCCNS(=O)(=O)c1ccc(SC)cc1	0.3
c1ccc(NC2=Nc3ccccc3CS2)cc1	0.1
CCn1c(NCc2cccs2)nc2ccccc21	i
Cc1nnc(SCC(=O)N(C(C)C)C(C)C)nc1C	i
O=C1Nc2ccccc2OC1CC(=O)N1CCOCC1 (stereo not drawn)	0.6
CC1=NC(=O)C(N=Nc2cccc(O)c2)N1c1ccccc1 (stereo not drawn)	i
COc1ccc(OC)c(S(=O)(=O)Nc2ccccc2C(=O)O)c1	i
COc1ccc(C(=O)Nc2c(F)c(F)c(F)c(F)c2F)c(OC)c1	i
Cc1ccc2cc(C)c3nnc(SCC(=O)NCc4ccco4)n3c2c1	7.1
COc1ccccc1C/C(N)=N/OC(=O)COc1ccc2ccccc2c1	0.4
O=C1Nc2ccc(S(=O)(=O)N3CCCC3)c3ccc(S(=O)(=O)N4CCCC4)c1c23	0.4
O=C(NC(NNc1ccc([N+](=O)[O-])cc1)(C(F)(F)F)C(F)(F)F)c1ccccc1Cl	i
Cc1nnc(NC(=O)CSc2cn(CCNC(=O)c3ccccc3)c3ccccc23)s1	0.4
CCc1ccc(N=CC23c4ccccc4C(c4ccccc42)C2C(=O)N(c4ccc(OC)cc4)C(=O)C23)cc1 (stereo not drawn)	i

(more compounds)
SMILES	H5N1 CPE
CCOc1ccc(NCc2nnc(SCC(=O)Nc3cc(C)on3)n2-c2ccccc2OC)cc1	i
Cc1cc(C)nc(-n2nc(C)cc2NC(=O)CN2CCC(C)CC2)n1	i
O=C(/C=C/Nc1ccccc1Br)c1ccccn1	i
C/C(=N\NC(=O)c1cccc(F)c1)c1ccc(Br)s1	0.4
O=C(CN1CCN(c2ncc(C(F)(F)F)cc2Cl)CC1)NCCNc1ncc(C(F)(F)F)cc1Cl	0.2
COc1ccc(-c2noc(CCC(=O)Nc3nc4ccccc4s3)n2)cc1	i
Cc1noc(C)c1COC(=O)c1cc2c3ccccc3n(C)c2s1	1.0
Cc1cnc(-c2nnc(N(C)C(=O)C3CCCO3)s2)cn1 (stereo not drawn)	i
CN1C(=O)CC(Sc2ccccc2C(=O)O)C1=O (stereo not drawn)	0.5
CCOC(=O)CNC(=O)c1cc(-c2ccc3c(c2)OCCO3)oc1C	5.4
Cc1ccc(CNC(=O)C2CCN(S(=O)(=O)N3CCOCC3)CC2)cc1	0.9
